Screens (PubChem)
H5N1 CPE: MDCK cell protection from H5N1 avian flu | cytopathic effect, luminescence, 72 h; hits give high values; no value below 0 was filed and about half of the inactive calls have no number; reference of the scale not given here | inhibition, % at 50 µM | 96,000 compounds, 0.07% hits | AID 740, 2007; in the data active means inhibition above about 25%
The depositor's hits bear a star; i = inactive. This is a subset; the hit share may differ from the screen's.

Start of the data: the first two entries, to show the layout:
SMILES	H5N1 CPE
ON=C1/C(=N\O)CC2(C/C1=N/O)OCCO2	1.0
CC(C)N(C=O)C1(C(=O)NC2CCCCC2)CCCCC1	0.1

All compounds of this part, from the first entry:
SMILES	H5N1 CPE
ON=C1/C(=N\O)CC2(C/C1=N/O)OCCO2	1.0
CC(C)N(C=O)C1(C(=O)NC2CCCCC2)CCCCC1	0.1
CCN(CC)CCN1C(=O)c2ccccc2NC1c1ccc(C)cc1 (configuration not stated)	i
CCOC(=O)Cc1nn2c(=O)cc(C)nc2s1	1.0
O=[N+]([O-])/C=C/c1cn(Cc2ccc(F)cc2)c2ccccc12	i
Clc1ccc(CSc2nnc(/C=C/c3ccccc3)o2)c(Cl)c1	i
COc1cccc(/C=N/n2cnnc2)c1OCc1ccccc1	i
Cc1ccc(S(=O)(=O)N2c3ccccc3OCC2C(C)(C)C)cc1 (configuration not stated)	1.2
Cc1cccc(C)c1NC(=O)N1CCC(n2c(=O)[nH]c3ccccc32)CC1	1.2
Nc1nc(-c2c[nH]c3ccccc23)cs1	i
COc1cc(/C=C2\N=C3CCCCCN3C2=O)ccc1O	1.8
CCC1(CC)C(=O)NC(=NCCc2c[nH]c3ccccc23)NC1=O	i
O=C(Nc1ccccc1)N(C1=NCCCCS1)c1cccc2ccccc12	i
CNc1nnc(-c2cccc(N(C)C)c2)s1	4.4
CCc1ccc(Nc2ncccc2C#N)cc1	i
CC(C)CCNC(=O)C12CN(Cc3ccccc3)CC1C(c1ccc([N+](=O)[O-])cc1)=NO2 (configuration not stated)	1.8
O=C(/C=C/c1ccco1)NC(=S)Nc1cccc(-c2nc3ccccc3o2)c1	i
O=C(CCN1CCOCC1)Nc1ccc2c(c1)N(C(=O)CN1CCOCC1)c1ccccc1CC2	0.3
CC(C)C(=O)Nc1ccc(C(=O)NNC(=O)c2ccco2)cc1	i
COc1cc(NC(=O)c2ccco2)c(OC)cc1NC(=O)CSc1ncc(-c2ccc(F)cc2)[nH]1	i

17 neighbouring compounds out of the list so far, for reference:
SMILES	H5N1 CPE
CCOC(=O)Cc1nn2c(=O)cc(C)nc2s1	1.0
O=[N+]([O-])/C=C/c1cn(Cc2ccc(F)cc2)c2ccccc12	i
Clc1ccc(CSc2nnc(/C=C/c3ccccc3)o2)c(Cl)c1	i
COc1cccc(/C=N/n2cnnc2)c1OCc1ccccc1	i
Cc1ccc(S(=O)(=O)N2c3ccccc3OCC2C(C)(C)C)cc1 (configuration not stated)	1.2
Cc1cccc(C)c1NC(=O)N1CCC(n2c(=O)[nH]c3ccccc32)CC1	1.2
Nc1nc(-c2c[nH]c3ccccc23)cs1	i
COc1cc(/C=C2\N=C3CCCCCN3C2=O)ccc1O	1.8
CCC1(CC)C(=O)NC(=NCCc2c[nH]c3ccccc23)NC1=O	i
O=C(Nc1ccccc1)N(C1=NCCCCS1)c1cccc2ccccc12	i
CNc1nnc(-c2cccc(N(C)C)c2)s1	4.4
CCc1ccc(Nc2ncccc2C#N)cc1	i
CC(C)CCNC(=O)C12CN(Cc3ccccc3)CC1C(c1ccc([N+](=O)[O-])cc1)=NO2 (configuration not stated)	1.8
O=C(/C=C/c1ccco1)NC(=S)Nc1cccc(-c2nc3ccccc3o2)c1	i
O=C(CCN1CCOCC1)Nc1ccc2c(c1)N(C(=O)CN1CCOCC1)c1ccccc1CC2	0.3
CC(C)C(=O)Nc1ccc(C(=O)NNC(=O)c2ccco2)cc1	i
COc1cc(NC(=O)c2ccco2)c(OC)cc1NC(=O)CSc1ncc(-c2ccc(F)cc2)[nH]1	i

(listing goes on)
SMILES	H5N1 CPE
CCOC(=O)c1sc(SC)c(C(C)=O)c1C	i
O=C(O)C1CCCCC1C(=O)NCc1ccc(F)cc1 (configuration not stated)	i
O=C1CC(c2ccc(F)cc2)Cc2nc(NCc3ccco3)ncc21 (configuration not stated)	1.3
O=C(Cn1nnc2ccccc2c1=O)NCc1ccco1	0.6
O=C(c1ccc(N2CCCCC2)c([N+](=O)[O-])c1)N(Cc1ccccc1)c1ccccn1	i
CCCCCCCC1(C)NC(=O)N(c2ccccc2)N1 (configuration not stated)	0.1
CC(=O)c1c(C)[nH]c(C(=O)NCCc2ccccc2)c1C	0.1
CC(C)C(=O)Nc1ccc(Cc2ccc(NC(=O)C(C)C)c(O)c2)cc1O	0.3
CCCCOc1ccc(/C=N/NC(=S)Nc2cc(C)ccc2C)cc1	0.1
CCOC(=O)C1=C(C)N=C(/N=C/N(C)C)SC1c1ccccc1 (configuration not stated)	0.5
COc1ccc(CNC2=CC(=O)CC(C)(C)C2)cc1	0.3
COC(=O)c1ccc(C(C(=O)NCc2ccccc2)N(Cc2ccco2)C(=O)c2cnccn2)cc1 (configuration not stated)	0.3
COc1cccc(N2CCN(C(=O)c3ccc4nc(N5CCCCC5)sc4c3)CC2)c1	1.5
Cc1nn(C)cc1/C=C1\SC(=S)NC1=O	i
CCOC(=O)c1ccc(NC(=O)c2nn(CC)cc2Br)cc1	i
CC1(C)CC(=O)c2cnc(NC(=O)CCc3ccccc3)nc2C1	i
O=C(NNC(=S)Nc1ccccc1)C1CC1	i
COc1ccc(C(CCc2ccc(C)o2)NC(=O)Nc2ccc(OC)cc2OC)cc1 (configuration not stated)	1.4
O=C(NC(=S)N1CCCCC1)c1cccnc1	i
O=S(=O)(NCc1ccccc1)c1cccs1	i
CSc1ccc(NC(=O)N2CC(C)OC(C)C2)cc1 (configuration not stated)	0.6
Cc1nn(Cc2c(F)c(F)c(F)c(F)c2F)c(C)c1NC(=O)c1cccc(COc2ccc(Cl)cc2)c1	i
CC(=O)Oc1cccc(/C=c2\sc3nc(-c4ccco4)nn3c2=O)c1	0.8
Cc1ccccc1N(CC(=O)NCCSCc1ccco1)S(C)(=O)=O	i
O=C(Nc1ccccc1)c1c(F)c(F)c(F)c(F)c1F	i
CC(C)CC(NC(=O)C1CCC(C)CC1)C(=O)Nc1ccc2c(c1)OCCO2 (configuration not stated)	i
COc1cc(N2CCCC2)c(OC)cc1/C=C(/C#N)c1cccc(F)c1	i
COc1ccc(-c2nnc(SC(C)C#N)o2)cc1 (configuration not stated)	1.1
CCCc1nc(SCc2cccnc2)c2c(=O)n(C)c(=O)n(C)c2n1	3.1
COc1ccc2nc(NC(=O)CSc3nnnn3C3CCCCC3)sc2c1	1.1
CC(C)(Oc1ccc(Cl)cc1)C(=O)Nc1ccncc1	0.7
Cc1cc(N(CCCl)CCCl)ccc1/C=N/NC(=O)c1ccco1	i
COc1ccc(S(=O)(=O)Nc2cc(C)nn2-c2ccccc2)cc1	i
c1ccc(-n2c(SCc3nc(-c4cccs4)no3)nnc2-c2ccco2)cc1	15
O=C(CSc1nnc2c(Cl)cc(Cl)cn12)N1CCOCC1	i
O=P(OC1CCCCC1)(OC1CCCCC1)C(O)c1ccccc1 (configuration not stated)	0.3
Clc1cc(Sc2ccc(Br)cc2)nnc1-c1ccccc1	0.4
CCOC(=O)c1sc2nc(C3CC3)cc(-c3ccc(OC)cc3)c2c1N	0.7
CCOC(=O)c1ccc(NC(=O)CC2C(=O)N(c3ccc(F)cc3)C(=O)N2CCC(C)C)cc1 (configuration not stated)	i
C=CCn1c(SCc2ccc3c(c2)OCO3)nc2scc(-c3ccco3)c2c1=O	i
CCn1c(SCC(N)=O)nnc1-c1ccco1	0.4
COC(=O)c1cccc(N2C(=O)C(Cl)=C(N3CCOCC3)C2=O)c1	0.6
Cc1cc(C(=O)Nn2cnnc2)cs1	i
COc1ccc(S(=O)(=O)CCC(=O)NCCc2cccc(C)c2)cc1	i
COc1cc(-n2nnnc2SCC(=O)N2CCN(c3ccc(F)cc3)CC2)c(OC)cc1Cl	i
Cc1ccc(NC(=S)NCc2cccn2C)cc1	0.8
CCOc1ccc2nc(NCCNC(=O)Nc3ccccc3)c(C#N)cc2c1	0.7
Cc1c(Cl)cccc1NC(=O)CCCCCN1C(=O)CCC1=O	i
Cc1ccccc1C(=O)NC1CCN(CC(=O)Nc2nccs2)CC1	0.4
N#Cc1c(-c2ccc(Cl)cc2)ccn2nc(C3CCCCC3)nc12	i
Further structures follow:
SMILES	H5N1 CPE
CCN(CC)c1ccc(NS(=O)(=O)c2ccc3c(c2)oc(=O)n3C)c(C)c1	1.9
CCCc1cc(=O)oc2cc(OCc3cc(OC)c(OC)c(OC)c3)c(Cl)cc12	i
Clc1ccc(-c2cc(COc3ccc4ccccc4c3)no2)cc1	0.9
CCCCOCCCNC(=O)Cc1ccccc1OC	0.3
O=S(=O)(C/C(=C/CO)S(=O)(=O)c1ccccc1)c1ccccc1	1.3
CC1CCN(C(=O)CN(CCc2ccccc2)S(C)(=O)=O)CC1	0.8
Cc1cnc(C(=O)OCC(=O)Nc2cccc(Cl)c2)cn1	i
O=C(CSc1nc2c(cnn2-c2ccccc2)c(=O)[nH]1)N1CCOCC1	1.8
CC(C)NC(=O)c1n[nH]c(=O)c2ccccc12	0.4
COC(=O)c1cc(C(=O)OC)cc(N2C(=O)CC(Sc3nc(C)cc(C)n3)C2=O)c1 (configuration not stated)	0.5
Nc1nc(CN2CCN(c3ccc(F)cc3)CC2)nc(N2CCCc3ccccc32)n1	i
COc1ccccc1N1CCN(C(=O)c2ccc(Br)s2)CC1	i
Cc1cccc(CN2CCN(CC(=O)NCCCN3CCN(c4ccc(F)cc4)CC3)C2=O)c1	i
O=C(N/N=C/c1ccc(Cl)cc1)Nc1ccccc1	i
COC(=O)C1=C(C)N(C)C(C)=C(C(=O)OC)C1c1ccc(Cl)cc1	i
COC(=O)c1ccc(C2NC(=O)NC(C)=C2C(=O)N(C)C)cc1 (configuration not stated)	0.7
Cc1cccc(C(=O)Oc2ccccc2-c2nnco2)c1	2.1
Cc1c(NC(=O)/C(=C\c2ccccc2)NC(=O)c2ccccc2)c(=O)n(-c2ccccc2)n1C	0.3
O=C(CSCC(=O)OCn1nnc2ccccc2c1=O)Nc1ccc(Cl)cc1	0.1
Cc1ccc(C(C2=C(O)CC(C)(C)CC2=O)C2C(=O)CC(C)(C)CC2=O)s1 (configuration not stated)	0.5
O=C(Nc1nncs1)c1ccccc1Br	1.2
CCOC(=O)c1c(C)nc2cc(C)ccn12	i
Cc1ccc2nc3sc(C(=O)N4CCOCC4)c(N)c3cc2c1	i
O=C1CC(N2CCN(c3ccc(C(=O)c4ccc(F)cc4)cc3)CC2)C(=O)N1 (configuration not stated)	2.7
COc1ccc(C2NC(=O)c3sc(=S)n(-c4ccccc4)c3N2)cc1 (configuration not stated)	1.3
COc1ccc2[nH]c(=O)c(CN(Cc3cccs3)Cc3nnnn3Cc3ccccc3)cc2c1	0.2
CC(=O)N1CCN(Cc2ccc(Br)s2)CC1	0.2
CCOC(=O)N1CCN(C(=S)NC)CC1	0.6
COc1ccc(C2C3=C(N=C4SCC(=O)N42)c2ccccc2CC3)cc1 (configuration not stated)	1.1
CCc1[nH]nc2c1C(Cc1ccccc1)C(C#N)=C(N)O2 (configuration not stated)	i
Cc1nn(CC(=O)N2CCOCC2)c(C)c1[N+](=O)[O-]	0.0
CCc1ccc(Cn2nnc(C(=O)Nc3ccc(OC)cc3OC)c2N)cc1	i
Cc1c(NC(=O)CSc2nnc(-c3ccco3)n2-c2ccccc2)c(=O)n(-c2ccccc2)n1C	1.5
Clc1ccc(Cn2cc(/C=N/n3cnnc3)c3ccccc32)c(Cl)c1	i
CCc1nn(-c2cc(Oc3ccccc3)nc(-c3ccccc3)n2)c(N)c1C#N	i
COc1ccccc1N1CCN(c2nc3ccccc3nc2C(C#N)C(=O)OC(C)C)CC1 (configuration not stated)	i
O=C(CN(Cc1ccccc1C(F)(F)F)C(=O)CNC(=O)c1ccco1)NC1CCCC1	0.4
Cc1nn(Cc2ccccc2)c(C)c1NC(=O)CSc1nc(-c2ccccc2)nc2c1cnn2-c1ccccc1	0.1
Cc1ccc(C)c(N(C)C(=O)COc2cc(=O)n(C)c3ccccc23)c1	2.1
O=S(=O)(c1ccc(F)cc1)N1CC2CCCN2c2ccc(C(F)(F)F)cc21 (configuration not stated)	i
CCCS(=O)(=O)N1CCC(C(=O)NCCCOC)CC1	i
O=C(CN1C(=O)NC2(CCCCCCC2)C1=O)N1CCN(C(=O)c2ccco2)CC1	i
Cc1cc(C)n(C(=O)C2CCCN2S(=O)(=O)c2ccc(Cl)cc2)n1 (configuration not stated)	i
O=c1[nH]c2cc(Cl)ccc2n(CCNc2ncc(C(F)(F)F)cc2Cl)c1=O	0.6
CC12CN3CC(C)(CN(C1)P3(=O)Oc1ccccc1)C2=O (configuration not stated)	1.1
Cc1cc2nc(CCN(Cc3cccnc3)C(=S)Nc3ccc(F)cc3)[nH]c2cc1C	0.8
O=C(OCc1nnc(-c2ccccc2)o1)c1ccc2c(c1)C(=O)N(CCc1ccccc1)C2=O	0.1
CCOC(=O)c1sc(C)nc1C1CCN(C(=O)OCC)CC1	0.3
COc1cccc(C2N(c3cccc(Cl)c3)C(=O)C3CCCN32)c1OC (configuration not stated)	i
N#Cc1c(-c2ccccc2)nc(-c2ccccc2)[nH]c1=O	2.3
Remaining list, next part:
SMILES	H5N1 CPE
CCC(=O)N(Cc1cc2cc(C)c(C)cc2[nH]c1=O)C1CCCCC1	i
CCOc1ccccc1-n1nnnc1SCC(=O)NC(=O)NCc1ccco1	0.2
CCN1C(=O)c2cccc3c(S(=O)(=O)NCCCN4CCOCC4)ccc1c23	0.5
CCN1CCN(c2nc3c(c(=O)n(C)c(=O)n3C)n2Cc2cccc3ccccc23)CC1	2.0
CC(=O)Nc1ccc(C(=S)NCc2ccco2)cc1	i
COc1ccc2nc(N3CCOCC3)cc(C)c2c1	i
CCOC(=O)c1c(NC(=O)c2ccc(N3C(=O)C4C5C=CC(C5)C4C3=O)cc2)sc2c1CCCC2 (configuration not stated)	i
CC1CN(C2CCN(C(=O)c3cccc(Cl)c3)CC2)CC(C)O1 (configuration not stated)	0.5
C=CCNCCCCOc1ccc(C)cc1[N+](=O)[O-]	i
Cc1ccc(C(c2sc3nc(C)nn3c2O)N2CCN(c3ccccc3F)CC2)cc1 (configuration not stated)	i
O=C(Cn1cnc2ccccc2c1=O)NCC1COc2ccccc2O1 (configuration not stated)	i
Fc1cccc(NC(=S)NCCCN2CCOCC2)c1	i
COc1ccc(OC)c(N(CC(=O)N2CCc3ccccc3C2)S(C)(=O)=O)c1	0.4
